B2AR ag: human beta-2 adrenergic receptor agonism by FAP; P07550; Am2.2-beta2AR cells, FAP receptor internalization, flow cytometry; reference of the scale not given here; response, % (no concentration beside the values); 0.43% of 340,000 active; AID 504454;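 active = response above a set limit, near 3 SD of response in nonfluorescent compounds, cut at about 42% in these data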;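 also: stock transfer was 100 nL into about 11 µL; a reference agonist was the positive control; negative values mostly stem from fluorescent compounds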
Bfl-1 A1 inh: inhibitors of the anti-apoptotic protein A1, read as caspase activation. caspase activation, % (no concentration beside the values). AID 2462. 0.066% of 330,000 active. MEF A1-2A-BIM cells, Caspase-Glo 3/7 luminescence, 3 h; percent of clofoctol response, vehicle zero;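 active = over half of replicate activation scores above 10%, or exactly half above 10 with the replicate mean above 10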;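 also: wells of about 30 µL received 50 nL stock; many hits fall short of the cut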
Calb FLC: C. albicans growth modulation with fluconazole. C. albicans CaCi-2 (fluconazole-resistant clinical isolate) + fluconazole, Alamar Blue growth, 48 h. growth inhibition, % (concentration not given with the values). 0.57% of 300,000 active;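 active = most replicates above 75%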;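 also: all wells also contain fluconazole at 8 µg/ml as a sub-toxic cotreatment; 0% = median of DMSO wells and 100% = median of geldanamycin control wells; wells of about 8 µL received 7.5 nL stock; the first replicate is given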
LANA-H2B inh: blocks KSHV LANA binding to histone H2A/H2B; Q9QR71; cell-free LANA-H2A/H2B peptide, fluorescence polarization; 0.6% of 320,000 active; inhibition, % (concentration not given with the values); in the data active = inhibition mostly above about 10%, no sharp cut-off; inactive = mostly below about 6.7%;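 also: stock transfer was 7.5 nL into about 10 µL; 0% = median of vehicle wells and 100% = median of positive control wells; one replicate is shown; the record names a cut of 25% in any replicate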
Target sequence (Q9QR71 whole entry, looked up): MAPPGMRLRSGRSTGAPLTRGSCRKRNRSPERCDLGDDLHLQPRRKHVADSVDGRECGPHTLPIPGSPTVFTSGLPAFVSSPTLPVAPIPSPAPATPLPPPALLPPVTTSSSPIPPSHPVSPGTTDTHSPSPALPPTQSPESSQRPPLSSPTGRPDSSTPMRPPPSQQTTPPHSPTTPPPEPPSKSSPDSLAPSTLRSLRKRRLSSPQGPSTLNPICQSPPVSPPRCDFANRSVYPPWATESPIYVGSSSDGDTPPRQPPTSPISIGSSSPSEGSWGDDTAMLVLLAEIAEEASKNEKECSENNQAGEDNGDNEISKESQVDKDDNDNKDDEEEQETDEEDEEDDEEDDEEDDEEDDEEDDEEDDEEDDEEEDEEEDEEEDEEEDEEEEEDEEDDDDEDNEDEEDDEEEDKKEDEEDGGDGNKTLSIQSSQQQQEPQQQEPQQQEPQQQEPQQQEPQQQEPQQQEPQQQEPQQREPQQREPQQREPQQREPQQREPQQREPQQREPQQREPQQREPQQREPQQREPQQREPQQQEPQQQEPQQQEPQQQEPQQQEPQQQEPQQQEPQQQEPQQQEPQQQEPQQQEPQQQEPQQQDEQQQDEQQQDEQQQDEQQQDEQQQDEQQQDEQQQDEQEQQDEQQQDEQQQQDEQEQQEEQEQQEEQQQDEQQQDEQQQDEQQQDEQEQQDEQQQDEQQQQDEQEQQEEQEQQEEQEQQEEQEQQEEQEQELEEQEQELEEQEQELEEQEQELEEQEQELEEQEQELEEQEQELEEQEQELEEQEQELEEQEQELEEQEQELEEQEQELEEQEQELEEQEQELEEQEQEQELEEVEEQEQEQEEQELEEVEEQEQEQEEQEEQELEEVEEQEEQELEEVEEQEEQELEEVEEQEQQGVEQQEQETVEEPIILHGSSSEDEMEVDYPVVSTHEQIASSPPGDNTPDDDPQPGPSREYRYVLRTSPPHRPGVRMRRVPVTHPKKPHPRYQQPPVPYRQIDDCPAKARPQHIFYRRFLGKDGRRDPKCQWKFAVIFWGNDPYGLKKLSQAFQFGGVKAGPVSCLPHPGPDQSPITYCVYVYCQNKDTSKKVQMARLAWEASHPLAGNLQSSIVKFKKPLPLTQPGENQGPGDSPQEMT
Ecoli rRNA inh: inhibits bacterial ribosomal RNA function over humanized ribosomes | 1.6% of 350,000 active | AID 720706 | GFP signal change (wild-type ribosome), % (test concentration not listed) | E. coli WT GFP vs humanized-ribosome RFP mutants, fluorescence, 24 h; active compounds read low; DMSO median 0, no signal -100;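 active = significant combined selectivity score with lowered wild-type GFP, culture density cut under 30%, mutant RFP and density less affected; inactive = any of these conditions unmet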; also: one replicate is shown; some compounds called inactive have numbers as strong as hits
ALR inh: inhibitors of human sulfhydryl oxidase ALR; P55789; inhibition, % (test concentration not listed); 3.8% of 290,000 active; AID 485317; purified ALR, DTT oxidation, H2O2 HRP-luminol luminescence;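 active = mean and each replicate at 75% or more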;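 also: stock transfer was 7.5 nL into about 7.5 µL; 0% = neutral wells and 100% = wells with inactivated enzyme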
Beta apoptosis: blocks beta cell apoptosis; INS-1E cytokine-induced death, ATP luminescence, 48 h; percent of positive-control rescue, neutral wells zero; protection from apoptosis, % (test concentration not listed); 0.8% of 300,000 active; AID 435005;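 active = all replicates at 75% or more, or half of them and the mean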;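 also: 0% = cytokine-treated negative control wells and 100% = positive control rescue; higher means more ATP so stronger rescue from cytokine killing; wells of about 40 µL received 100 nL stock; the first replicate is given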
T cruzi inh: T. cruzi replication inhibition | T. cruzi beta-gal in NIH3T3, luminescence, 90 h | inhibition, % (concentration not given with the values) | 1.4% of 300,000 active | AID 1885;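 active = mean inhibition across valid replicates above about 55%, limit read from the data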;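 also: signal also drops with host cell toxicity which is not excluded here; 0% = plate median of DMSO wells and 100% = zero luminescence signal; higher percent means less beta-gal luminescence so fewer parasites; stock transfer was 50 nL into about 50 µL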
Ecoli rRNA inh OD600: second read-out of Ecoli rRNA inh, no call of its own (marks repeat the call); OD600 change, %; measured here: OD600 growth;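 optical density of the mix in the first replicate; 0 = DMSO median and -100 = no signal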
Ecoli rRNA inh RFP: further read-out of Ecoli rRNA inh, marked with its call; RFP signal change, %; measured here: RFP humanized mutant strains;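 first replicate; 0 = DMSO median and -100 = no signal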
* hit, by the source's call. Not all compounds are listed (hit frequency here may not be typical).

O=C1NC(Nc2nc3ccccc3s2)(C(F)(F)F)C(=O)N1C1CCCCC1 (centres undefined) was read as B2AR ag -8, Bfl-1 A1 inh -0.2, Calb FLC 7, LANA-H2B inh 19, Ecoli rRNA inh -38, ALR inh -7, Beta apoptosis -6, T cruzi inh 35, Ecoli rRNA inh OD600 -38 and Ecoli rRNA inh RFP 8.5.
COc1ccc2c(c1)CC/C(=C/c1cc(OC)c(OC)c(OC)c1)C2=O was read as B2AR ag -3, Bfl-1 A1 inh -0.3, Calb FLC 12, LANA-H2B inh -1.1, Ecoli rRNA inh -20*, Beta apoptosis -5, T cruzi inh -6, Ecoli rRNA inh OD600 -7.3* and Ecoli rRNA inh RFP -1.3*.
O=C(Nc1ccc(Oc2ccc(Br)cc2)cc1)C1=CC=CN2CCS(=O)(=O)N=C12 was read as B2AR ag -4, Bfl-1 A1 inh -0.4, LANA-H2B inh 4.3, Ecoli rRNA inh 11, ALR inh 2, Beta apoptosis -7, Ecoli rRNA inh OD600 12 and Ecoli rRNA inh RFP 0.2.
For COc1ccccc1CN1CCCCCC1 the results were B2AR ag 5, Bfl-1 A1 inh -0.4, Calb FLC -5, LANA-H2B inh 3.4, Ecoli rRNA inh 6, ALR inh -1, Beta apoptosis 0, T cruzi inh 1, Ecoli rRNA inh OD600 8 and Ecoli rRNA inh RFP -0.6.
Screening COC1CCCN(Cc2cn(C)nc2-c2ccc(Oc3ccccc3)cc2)C1 (centres undefined) returned B2AR ag 1, Bfl-1 A1 inh 0.6, Calb FLC -5, LANA-H2B inh -2.0, Ecoli rRNA inh 3, ALR inh -29, Beta apoptosis -1, T cruzi inh 12, Ecoli rRNA inh OD600 -2 and Ecoli rRNA inh RFP 0.5.
For Cc1cc(C)nc(Nc2ccc(Cl)cc2C)n1 the results were B2AR ag -6, Bfl-1 A1 inh 0.4, Calb FLC 2, LANA-H2B inh 1.3, Ecoli rRNA inh 10, ALR inh -6, Beta apoptosis 17, T cruzi inh 2, Ecoli rRNA inh OD600 4 and Ecoli rRNA inh RFP 1.8.
Screening COc1ccccc1C1NC(=O)NC(C)=C1C(=O)OCc1ccccc1 (centres undefined) returned B2AR ag -5, Bfl-1 A1 inh 0.3, Calb FLC 8, LANA-H2B inh -3.0, Ecoli rRNA inh -23*, Beta apoptosis 1, T cruzi inh 3, Ecoli rRNA inh OD600 -17* and Ecoli rRNA inh RFP 0.3*.
For COc1ccc2cc(C(=O)N3CCCC(Nc4ccc(F)cc4)C3)n(C)c2c1 (centres undefined) the results were B2AR ag 1, Bfl-1 A1 inh -0.4, Calb FLC 13, LANA-H2B inh 13, Ecoli rRNA inh -8, ALR inh 25, Beta apoptosis -3, T cruzi inh -2, Ecoli rRNA inh OD600 -14 and Ecoli rRNA inh RFP 3.2.
CSCC[C@H](N)C(=O)NC[C@H]1CC[C@H](C(=O)N[C@@H](Cc2ccccc2)C(=O)O)CC1 was read as B2AR ag -1, Bfl-1 A1 inh 0.9, Calb FLC -6, LANA-H2B inh 1.0, Ecoli rRNA inh 12, T cruzi inh -3, Ecoli rRNA inh OD600 13 and Ecoli rRNA inh RFP 1.8.
CN(C)/C=C1\N=C(c2ccc3c(c2)OCO3)OC1=O was read as B2AR ag 12, Bfl-1 A1 inh -1.5, Calb FLC -5, LANA-H2B inh 0.2, ALR inh 1, Beta apoptosis -2 and T cruzi inh -7.
Cc1ccc(NC(=O)CC2SC(=NC3CCCCC3)NC2=O)cc1 (centres undefined) was read as B2AR ag -4, Bfl-1 A1 inh 0.2, Calb FLC 0, LANA-H2B inh 0.2, ALR inh 12, Beta apoptosis -3 and T cruzi inh 0.
O=c1[nH][nH]c(C(F)(F)F)c1C=Nc1ccc(Cl)cc1 was read as B2AR ag -1, Bfl-1 A1 inh 1.3, Calb FLC 3, LANA-H2B inh -1.9, ALR inh 24, Beta apoptosis 4 and T cruzi inh 10.
N#Cc1cccc(CN2CCC(=O)N([C@H](CO)Cc3ccccc3)CC2)c1 was read as B2AR ag -5, Bfl-1 A1 inh 1.1, Calb FLC 0, LANA-H2B inh -3.4, Ecoli rRNA inh 11, Beta apoptosis -7, T cruzi inh 1, Ecoli rRNA inh OD600 20 and Ecoli rRNA inh RFP 3.4.
C[C@H]1CN=C(N(C)C)N1CCC1CCCCC1 was read as B2AR ag -8, Bfl-1 A1 inh 0.4, LANA-H2B inh 2.9, Ecoli rRNA inh 8, ALR inh -2, Beta apoptosis -6, Ecoli rRNA inh OD600 17 and Ecoli rRNA inh RFP 0.2.
O=C(O)CCCCCN=C1CCc2ccccc2N1 was read as B2AR ag 2, Calb FLC 3, LANA-H2B inh 14 and T cruzi inh 4.
`COc1ccc(C(=O)C2CCCN(C(=O)c3ccnn3C)C2)c(C)c1` (centres undefined) gave B2AR ag -2, Bfl-1 A1 inh -0.1, Calb FLC 19, LANA-H2B inh 0.6, Ecoli rRNA inh 4, ALR inh 1, Beta apoptosis -17, T cruzi inh -4, Ecoli rRNA inh OD600 6 and Ecoli rRNA inh RFP 3.0.
`O=C1c2ccccc2C(=O)N1CCc1nc(-c2ccccn2)no1` gave B2AR ag -15, Bfl-1 A1 inh -0.1, Calb FLC -7, LANA-H2B inh 3.9, ALR inh 4, Beta apoptosis -10 and T cruzi inh -6.
`C[C@H]1C=C(C(=O)N2CCN(Cc3ccc4c(c3)OCO4)CC2)O[C@@H](OCc2ccc(CO)cc2)C1` gave B2AR ag 3, Bfl-1 A1 inh -0.5, Calb FLC -12, LANA-H2B inh 4.0, Ecoli rRNA inh -3, ALR inh -1, Beta apoptosis 4, T cruzi inh 8, Ecoli rRNA inh OD600 5 and Ecoli rRNA inh RFP 7.4.
Screening Cc1cc(-c2ccccc2)nc(N/N=C/c2ccccc2)n1 returned B2AR ag 6, Bfl-1 A1 inh -2.7, Calb FLC 7, LANA-H2B inh -0.6, Ecoli rRNA inh -15, ALR inh -1, Beta apoptosis 6, T cruzi inh -2, Ecoli rRNA inh OD600 -6 and Ecoli rRNA inh RFP 2.8.
CC1CCc2c(sc3ncnc(SCC(=O)Nc4ccc(C(=O)O)cc4)c23)C1 (centres undefined) was read as B2AR ag -6, Bfl-1 A1 inh -0.7, Calb FLC 47, LANA-H2B inh -1.4, Ecoli rRNA inh 1, ALR inh 22, Beta apoptosis -10, T cruzi inh -8, Ecoli rRNA inh OD600 11 and Ecoli rRNA inh RFP 1.6.
For COc1ccccc1N1CCN(C(=O)CCC(=O)Nc2nnc(C(C)C)s2)CC1 the results were B2AR ag -1, Bfl-1 A1 inh -1.5, Calb FLC 8, LANA-H2B inh -1.8, Ecoli rRNA inh -2, ALR inh 12, T cruzi inh -16, Ecoli rRNA inh OD600 -1 and Ecoli rRNA inh RFP -1.2.
Screening N#Cc1c(NC(=O)Cn2cnc3ccccc3c2=O)oc(-c2ccccc2)c1-c1ccccc1 returned B2AR ag 1, Bfl-1 A1 inh -0.4, Calb FLC 6, LANA-H2B inh 1.0, ALR inh 0, Beta apoptosis 1 and T cruzi inh -24.
CC(=O)c1c(N(C)C)ccnc1C(F)(F)F was read as B2AR ag 5, Bfl-1 A1 inh 0.5, Calb FLC 17, LANA-H2B inh -1.7, ALR inh -9, Beta apoptosis -9 and T cruzi inh 2.
Cc1nn(C(C)(C)C)c(N)c1-c1ccccc1 was read as B2AR ag -3, Bfl-1 A1 inh 1.2, Calb FLC 1, LANA-H2B inh 2.6, ALR inh 3, Beta apoptosis -8 and T cruzi inh -17.
`Cc1ccc(NC(=O)CNCCCN2CCOCC2)cc1S(=O)(=O)N1CCCCC1` gave B2AR ag -9, Bfl-1 A1 inh 1.2, Calb FLC -9, LANA-H2B inh 7.4, Ecoli rRNA inh 7, ALR inh -4, Beta apoptosis -19, T cruzi inh 24, Ecoli rRNA inh OD600 4 and Ecoli rRNA inh RFP -2.6.
Screening CCOc1ccc(/C(O)=C2/C(=O)C(=O)N(CCOCCO)C2c2ccc(F)cc2)cc1 (centres undefined) returned B2AR ag 1, Bfl-1 A1 inh -0.8, Calb FLC -3, LANA-H2B inh 2.6, ALR inh -6, Beta apoptosis 0 and T cruzi inh -10.
Screening O=C(CN1C(=O)CCC1=O)NNc1ccc2ccccc2c1 returned B2AR ag -1, Bfl-1 A1 inh 1.3, Calb FLC 100*, LANA-H2B inh 0.2, Ecoli rRNA inh -2, ALR inh 98*, Beta apoptosis -9, Ecoli rRNA inh OD600 -1 and Ecoli rRNA inh RFP 0.8.
CCCn1nc(C(=O)NNC(=O)c2ccc(OC(F)F)cc2)c2ccccc2c1=O was read as B2AR ag -2, Bfl-1 A1 inh -0.5, LANA-H2B inh -2.7, Ecoli rRNA inh -7, ALR inh -1, Beta apoptosis -3, Ecoli rRNA inh OD600 -17 and Ecoli rRNA inh RFP -10.
`CCCC(=O)Nc1ccc(C(=O)n2ccc(C)n2)cc1` gave B2AR ag -1, Bfl-1 A1 inh -1.1, Calb FLC 11, LANA-H2B inh -2.4, Ecoli rRNA inh 23, ALR inh -2, Beta apoptosis -2, T cruzi inh -8, Ecoli rRNA inh OD600 17 and Ecoli rRNA inh RFP 0.3.
O=C(Nc1c(F)cccc1F)C(c1ccccc1)c1ccccc1 was read as B2AR ag -1, Bfl-1 A1 inh 0.8, Calb FLC -17, LANA-H2B inh 2.0, Ecoli rRNA inh 7, ALR inh 4, Beta apoptosis -7, T cruzi inh 16, Ecoli rRNA inh OD600 4 and Ecoli rRNA inh RFP 1.2.
Screening CC(C)N1CCC(=NNC(=O)c2ccc(Br)o2)CC1 returned B2AR ag 15, Bfl-1 A1 inh 0.4, Calb FLC -2, LANA-H2B inh 2.2, ALR inh -2, Beta apoptosis -4 and T cruzi inh -1.
For Cc1ccccc1NC(=O)CSc1nn2c(=O)c(C)nnc2s1 the results were B2AR ag 5, Bfl-1 A1 inh 0.7, Calb FLC 8, LANA-H2B inh 3.3, Ecoli rRNA inh 17, ALR inh 49, Beta apoptosis -2, T cruzi inh -15, Ecoli rRNA inh OD600 8 and Ecoli rRNA inh RFP 2.0.
For Cc1cc(C(=O)Nc2nc3ccc(Cl)cc3s2)nn1C the results were B2AR ag -14, Bfl-1 A1 inh -2.5, Calb FLC 2, LANA-H2B inh -0.6, Ecoli rRNA inh 5, ALR inh -13, Beta apoptosis 5, T cruzi inh -15, Ecoli rRNA inh OD600 6 and Ecoli rRNA inh RFP -1.2.
`COc1cccc(NC(=O)CN(C)C(=O)CCCc2nc3ccccc3s2)c1` gave B2AR ag -7, Bfl-1 A1 inh 0.2, Calb FLC -7, LANA-H2B inh 2.7, Ecoli rRNA inh 0, ALR inh -1, Beta apoptosis 2, T cruzi inh -4, Ecoli rRNA inh OD600 -2 and Ecoli rRNA inh RFP 0.7.
Screening O=S(=O)(CCc1nc2ccccc2o1)c1ccc(Cl)c(Cl)c1 returned B2AR ag 1, Bfl-1 A1 inh 1.6, Calb FLC -3, LANA-H2B inh 2.9, ALR inh 0, Beta apoptosis 0 and T cruzi inh -5.
Screening Cc1ccccc1-c1noc(-c2ccc(Cl)cc2)n1 returned B2AR ag -2, Bfl-1 A1 inh -6.1, Calb FLC -4, LANA-H2B inh -1.3, ALR inh -4, Beta apoptosis 3 and T cruzi inh -14.

High-throughput results as filed in PubChem BioAssay.
